# Screening data from PubChem BioAssay.
# PINK1 expr mod: A Quantitative High throughput Screen to Identify Chemical Modulators of PINK1 Expression. 0.2% of 410,000 active. PINK1 immunofluorescence, high-content cytometry, 24 h. Potency, µM (series often up to 76.6 µM), without a hit: top-dose activation (PINK1 increase), usual class: activators; active = well fitted activation curve with a large enough effect; inconclusive = small, poorly fitted or top-dose-only effect; inactive = flat fitted curve, though single readings scatter; cell line not stated here;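 further: % of control where 0% means no effect; nearly all actives have a fitted effect of over 65% in size; a mitochondrial uncoupler was the plate control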
#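 Stable cell line treated 24 h with compounds at 5 concentrations (CCCP controls), then fixed and immunostained for PINK1 plus nuclear and cell stains; PINK1 immunofluorescence quantified by laser-scanning microplate cytometry.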
# Starred values were filed as active, the others as inactive; ? = inconclusive; & = joins results of further samples. Potency means the concentration at half of the fitted maximal effect. Some of the compounds tested; the hit share may differ from the screen's.
# Preview:
Molecule	PINK1 expr mod
COc1ccc(NC(=O)CC2C(=O)N(c3ccc(F)cc3)C(=O)N2CCc2sccc2C)cc1 (stereo unspecified)	1.4%
O=C(CSc1n[nH]c(-c2ccccc2Cl)n1)N1CCN(c2ccc(F)cc2)CC1	-0.2%
CCCN(CCC)c1nc(-c2ccccc2F)nc2ccccc12	11%
CCN(CC)CCOC(=O)c1ccc(NC(=O)c2cc3c(=O)n(CC)c4ccccc4c3s2)cc1	0.2%
Cc1ccc(CNc2nc(CN3CCNC(=O)C3)nc3ccccc23)o1	0.0%

# All compounds of this part, previewed entries included:
Molecule	PINK1 expr mod
COc1ccc(NC(=O)CC2C(=O)N(c3ccc(F)cc3)C(=O)N2CCc2sccc2C)cc1 (stereo unspecified)	1.4%
O=C(CSc1n[nH]c(-c2ccccc2Cl)n1)N1CCN(c2ccc(F)cc2)CC1	-0.2%
CCCN(CCC)c1nc(-c2ccccc2F)nc2ccccc12	11%
CCN(CC)CCOC(=O)c1ccc(NC(=O)c2cc3c(=O)n(CC)c4ccccc4c3s2)cc1	0.2%
Cc1ccc(CNc2nc(CN3CCNC(=O)C3)nc3ccccc23)o1	0.0%
CCn1nc(C)c(CCN(C)C(=O)Nc2cc(OC)c(OC)c(OC)c2)c1C	-1.2%
C=C1NN(C)C(=O)N1c1ccc(OC)cc1	0.0%
O=C1c2cccnc2C(=O)N1c1nc(-c2ccccc2)cs1	-1.0%
Cc1nn(S(=O)(=O)c2ccc(Br)cc2)c(C)c1S(=O)(=O)N1CCCCCC1	1.8%
COc1ccccc1C(=O)Oc1ccc(C(c2c(C)[nH][nH]c2=O)c2c(C)[nH][nH]c2=O)cc1	0.4%
Cc1ccc(/C=C/c2onc(C)c2S(=O)(=O)N2CCC(C(=O)NCC(C)c3ccccc3)CC2)cc1 (stereo unspecified)	3.1%
COc1ccccc1N1CCN(C(=O)Cn2cnc3onc(-c4ccc(F)cc4)c3c2=O)CC1	-5.4%
Cc1ccc(CN2CCCn3nc(C(=O)NCCc4ccccc4C)cc3C2=O)cc1	-1.0%
COc1cc2nc(N3CCCN(C)CC3)nc(NC(C)C)c2cc1OC	2.4%
Cc1c(C(=O)Nc2cccc(C#N)c2)sc2nc3n(c(=O)c12)CCCCC3	1.7%

# Other records.
Molecule	PINK1 expr mod
CCOc1ccc(CCNC(=O)c2ccc3c(c2)N(Cc2ccc(F)cc2)CCS3)cc1	5.8%
CCCCC(=O)Nc1ccc2nc(SCC(=O)N3CCc4ccccc43)sc2c1	-1.0%
O=C(CSc1cn(CC(=O)N2CCCC2)c2ccccc12)Nc1ccc(Cl)cc1	0.0%
c1ccc(Nc2c(-c3ccccc3)nc3ncccn23)cc1	2.5%
CCc1ccccc1NC(=O)CN1C(=O)CCn2nc(-c3cccn3C)cc21	0.7%
Cc1ccc(N2CCN(C(=O)c3cnc(N4CCCCC4)c4ccccc34)CC2)c(C)c1	0.1%
COC(=O)c1c(-c2cccs2)csc1NC(=O)c1ccc(C)cc1	1.3%
CCc1ccc2c(c1)NC(c1ccc(OC)cc1)=NC(c1ccncc1)=N2	-1.0%
CC(NC(=O)c1cnn2c1NC(=C1CC1)C=C2C(F)F)c1ccncc1 (stereo unspecified)	-1.0%
COc1ccc(N2CC(NC(=O)C(c3ccccc3)c3ccccc3)CC2=O)cc1OC (stereo unspecified)	0.9%
O=C(CCC(=O)N1Cc2ccccc2Oc2ncccc21)Nc1ccc(Cl)cc1	0.2%
COc1cccc(-n2cc(C(=O)Nc3cccc(C(F)(F)F)c3)c3ccccc3c2=O)c1	1.5%
Cc1ccc(C)c(N2CCN(C(=O)C3CCN(S(=O)(=O)c4ccc5[nH]c(=O)oc5c4)CC3)CC2)c1	-1.5%
COc1ccc(CNCc2ccc3c(c2)n(C)c(=O)n3C)cc1	-0.7%
Cc1ccccc1NC(=O)/C(C#N)=C/c1ccc(Cl)cc1Cl	2.6%

# Going on with the list:
Molecule	PINK1 expr mod
COc1cccc(NC(=O)c2sc3nc(N4CCOCC4)c4c(c3c2N)CC(C)(C)OC4)c1	-1.8%
Cc1ccc2ncnc(NCc3ccco3)c2c1	2.7%
Cc1ccc(CN(Cc2ccco2)C(=O)COc2c(C)cc(C)cc2C)cc1	13%
Cc1sc2ncn(CC(=O)Nc3cccc(C(F)(F)F)c3)c(=O)c2c1S(=O)(=O)N1CCC(C)CC1	-0.3%
Cc1ccc(Sc2ccc(N3CCC(C(=O)Nc4ccc(C)c(F)c4)CC3)nn2)cc1	0.8%
CCC1CN(C(=O)N2CCC(C(=O)NCc3ccc(OC)cc3OC)CC2)c2cc(C)ccc2O1 (stereo unspecified)	1.8%
O=C(C[n+]1c2ccccc2cc2ccccc21)c1ccc(F)cc1	-0.2%
Cc1cc(C(=O)Nc2cccc(C)c2C)c2c(C)nn(-c3cccc(F)c3)c2n1	1.4%
CCC(=O)Nc1nnc(S(=O)(=O)N(C)Cc2ccccc2)s1	-0.2%
COCCCNC(=O)CSc1nc2c(sc3ccccc32)c(=O)n1CCc1ccccc1	1.7%
Cc1ccc(CN2CCSc3ccc(C(=O)Nc4cc(C)cc(C)c4)cc32)cc1	-0.1%
O=C(CCCCn1c(=O)[nH]c2ccsc2c1=O)N1CCN(c2cccc(Cl)c2)CC1	1.1%
Cc1cc(C)c(S(=O)(=O)NCCc2cc3ccc(C)cc3[nH]c2=O)c(C)c1	-1.2%
CC(CNC(=O)c1ccc(Cn2c(SCc3ccccc3)nc3cccnc32)cc1)c1ccccc1 (stereo unspecified)	1.6%
CCOc1ccc(CCNC(=O)C2Cc3ccccc3N2C(=O)CC)cc1OCC (stereo unspecified)	0.4%

# The results go on.
Molecule	PINK1 expr mod
CCOc1nc(NC(=O)NS(=O)(=O)Oc2ccc(Cl)cc2)nc(-c2ccccc2)n1	0.8%
CCc1ccc(NC(=O)CC2C(=O)N(c3cccc(C)c3)C(=O)N2Cc2ccco2)cc1 (stereo unspecified)	0.4%
COc1ccc(C(=O)CN2C(=O)N(c3cc(C)ccc3C)S(=O)(=O)c3ccccc32)cc1	2.5%
CCc1ccccc1N(C)C(=O)c1nn(-c2ccc(OC)cc2)c(=O)c2c1c1ccccc1n2C	2.8%
CCc1ccccc1NC(=O)c1ccc2c(c1)N(Cc1cccc(Cl)c1)C(=O)c1ccccc1S2(=O)=O	0.5%
COc1ccc2cc(CN(C(=O)c3cc(C)nn3C)C3CC3)c(-c3ccc(Cl)cc3)nc2c1	1.0%
COc1ccc(-c2ccnc3c2c(=O)n(C)c(=O)n3C)cc1OC	0.0%
CC(C)(C)C(=O)Nc1cccc(C(=O)OCc2cc(=O)n3nc(C4CCCCC4)sc3n2)c1	0.3%
Cc1ccc(CNC(=O)c2ccc(CSCc3ccc(C)cc3)o2)cc1	-0.2%
CCC(Oc1ccccc1-c1nnc(-c2ccccc2)o1)C(=O)Nc1ccc(C(C)=O)cc1 (stereo unspecified)	0.2%
COCCNc1oc(/C=C/c2ccc(F)cc2)nc1C#N	-0.4%
COc1ccc(Cn2c(=O)c3oc4ccccc4c3n(CC(=O)Nc3c(C)cccc3C)c2=O)cc1	0.5%
CCc1ccc(NC(=O)Cn2nnc(C(=O)NCc3ccc(C)cc3)c2N)cc1	5.7%
CCN(CC)S(=O)(=O)c1ccc(C(=O)NC2CC(=O)N(c3ccc4c(c3)OCCO4)C2)cc1 (stereo unspecified)	-0.3%
Cc1nn(C(=O)c2ccc(Cl)cc2)c(C)c1S(=O)(=O)N1CCCCCC1	0.8%

# Structures listed so far with a CF3 group, in the order listed:
Molecule	PINK1 expr mod
COc1cccc(-n2cc(C(=O)Nc3cccc(C(F)(F)F)c3)c3ccccc3c2=O)c1	1.5%
Cc1sc2ncn(CC(=O)Nc3cccc(C(F)(F)F)c3)c(=O)c2c1S(=O)(=O)N1CCC(C)CC1	-0.3%

# Remaining list, next part:
Molecule	PINK1 expr mod
COCC1CCCN(Cc2ccc3c(c2)CN(C(=O)c2cn4ccc(C)cc4n2)CCO3)C1 (stereo unspecified)	0.8%
Cc1cn2c(=O)cc(COC(=O)c3cccc(NC(=O)COc4ccc(Cl)cc4)c3)nc2s1	-1.1%
O=C(Nc1cccc(Cl)c1)C1CCN(S(=O)(=O)Cc2ccccc2)CC1	1.0%
CSc1ccc(CCNC(=O)NCc2noc3ccccc23)cc1	-1.2%
CC(C)CCN1C(=O)c2ccccc2CC1(C)C(=O)NC1CCC(C)CC1 (stereo unspecified)	-1.3%
Cc1ccc(NC(=O)COc2ccccc2C(=O)Nc2ccccc2)cc1	2.8%
CCN(CC)c1ncnc2c1cnn2-c1cc(Cl)ccc1C	5.0%
COc1ccc(CNc2nc(N)nc3nc[nH]c23)cc1	0.4%&1.1%
CCOc1cccc(CNC(=O)c2ccc(N3CCCC3)c(NC(=O)NCc3ccc(F)cc3)c2)c1	4.4%
O=C1c2[nH]nc(-c3ccc(Br)cc3)c2C(c2cccc(O)c2)N1c1ccc(Cl)cc1 (stereo unspecified)	-1.5%
Cc1cccc(NC(=O)CSc2nc3ccc(NC(=O)COc4ccccc4C)cc3s2)c1	1.7%
COc1ccc(CNC(=O)c2cnc3sc(N4CCCCCC4)nn3c2=O)cc1	2.5%
O=c1cc(-c2ccccc2)n2c(SCc3ccc(F)cc3)nnc2[nH]1	?
CCOc1ccc(CNC(=O)Cc2ccc(NC(=O)N3CCSc4ncccc43)cc2)cc1	-0.4%
COc1ccc(S(=O)(=O)N(CC(=O)N(C)Cc2ccccc2)c2ccc(Cl)cc2)cc1	0.4%

# (next part)
Molecule	PINK1 expr mod
Cc1cccc(-n2c(=O)c3c(c4cc(C)ccc4n3C)n(CC(=O)Nc3ccc(C)c(C)c3)c2=O)c1	0.7%
O=C(O)CCN(CCC(=O)O)c1ccc(/C=C/c2ccnc3ccccc23)cc1	1.0%
O=C(NCc1cccc(Br)c1)C1CCCCN1S(=O)(=O)c1ccc(F)cc1 (stereo unspecified)	0.7%
Cc1ccc2c(CC(=O)N(Cc3cccc(Cl)c3)C3CCS(=O)(=O)C3)coc2c1 (stereo unspecified)	0.4%
O=c1c2sc3ccccc3c2n(Cc2ccc(F)cc2Cl)c(=O)n1Cc1ccccc1	-0.6%
CCOc1ccc(CNC(=O)Cn2nc(N3CCN(c4ccccc4)CC3)ccc2=O)cc1	-2.3%
Cc1ccc2c(c1)N(C(=O)N1CCC(C(=O)Nc3cccc(F)c3)CC1)CCO2	3.4%
COc1ccc(-c2csc(-c3nc(-c4ccc(Br)s4)cs3)n2)cc1F	0.1%
CCCn1c(CCC(=O)Nc2cccc(CC)c2)nc2cccnc21	-0.8%
COc1ccc(OC)c(-n2cnc3cc(C(=O)NC4CCCCCC4)ccc32)c1	2.3%
CCCCc1ccc(NC(=O)CSc2nc(=O)[nH]c3c2CCCC3)cc1	1.1%
Cc1ccc2nc(CN3CCN(C(=O)Nc4cccc(C)c4C)CC3)oc2c1	2.4%
CCCCN(CCCNC(=S)NCCCc1cnc[nH]1)c1ccc(Br)cn1	4.0%
Cc1cccc(-n2c(C)cc(C(=O)C(=O)Nc3nncs3)c2C)c1	-0.2%
Cc1cc(C)c2c(CC(=O)Nc3c(C(=O)Nc4ccc(Cl)cc4)oc4ccccc34)coc2c1	-1.5%

# More compounds follow:
Molecule	PINK1 expr mod
COc1ccc(CCn2cc3c(c2-c2ccccc2Br)c(=O)n(C)c(=O)n3C)cc1OC	-0.8%
COc1cc(NC(=O)CCc2c(C)nc3cc(-c4ccccc4)nn3c2C)cc(OC)c1OC	2.9%
CCN1CCN(Cc2c(O)ccc3c(C)c(-c4ccccc4)c(=O)oc23)CC1	0.2%
CCn1nc(-c2ccc(C)cc2)nc2c(=O)n(C)c(=O)nc1-2	2.5%
COc1cc(OC)cc(-n2c(=O)c3ccccc3n(CC(=O)NCCc3ccc(OC)c(OC)c3)c2=O)c1	0.2%
Cc1nc2nc(CNC(=O)OC(C)(C)C)nn2c(C)c1CCC(=O)NCc1ccc(F)cc1	0.9%
CCC(C)NC(=O)Cn1c(=O)n(-c2ccc(Cl)cc2)c(=O)c2c3c(sc21)CCCC3 (stereo unspecified)	0.8%
COc1ccc(C(=O)/C=C/c2cn(CC(O)CN(CC(C)C)CC(C)C)c3ccccc23)cc1 (stereo unspecified)	-1.2%
COc1ccc(N2CC(NC(=O)c3ccc(OC(C)C)cc3)CC2=O)cc1 (stereo unspecified)	-0.1%
Cc1ccc(CNS(=O)(=O)c2cc3[nH]c(=O)c(=O)[nH]c3cc2C)cc1	-0.5%
COC(=O)CN1C(=O)CSc2ccc(S(=O)(=O)Nc3ccc(C)c(Cl)c3)cc21	2.7%
Cc1ccc(CNC(=O)c2c(C)oc3ncnc(N4CCOCC4)c23)cc1	-11%
CC(C)OCCCNC(=O)CCCn1c(SCC(=O)c2ccc(Br)cc2)nc2c(sc3ccccc32)c1=O	0.5%
Cc1cc(C)c2c(=O)cc(CSc3n[nH]c(C)n3)[nH]c2c1	0.2%
CCc1ccc(NC(=O)CSc2nc3c(c(=O)[nH]2)CN(Cc2ccc(C)cc2)CC3)cc1	-1.5%

# New compounds follow
Molecule	PINK1 expr mod
Cc1nnc(N2CCCC(C(=O)NCCc3ccc(Cl)cc3)C2)c2nn(-c3ccccc3)c(C)c12 (stereo unspecified)	0.7%
O=C(C1CCC1)N1CCCc2cc(S(=O)(=O)Nc3ccc(F)cc3)ccc21	0.7%
CC(=O)c1ccc(NC(=O)C2CCC(CNS(=O)(=O)c3cccc4nsnc34)CC2)cc1 (stereo unspecified)	0.0%
O=C(C1CCN(S(=O)(=O)Cc2ccccc2)CC1)N1CCN(c2cccc(Cl)c2)CC1	3.0%
